High-throughput results from PubChem.
AmpC inh no det = Promiscuous and Specific Inhibitors of AmpC Beta-Lactamase (assay without detergent); P00811; AmpC nitrocefin hydrolysis, absorbance 480 nm, no detergent; potencies from a single point are estimates; Potency, µM (top dose mostly 28.7 µM), inactives show top-dose activity change, negative = inhibition; 71,000 tested, 1.8% active; AID 585, 2007; active = falling curve, for most hits resting on a single point; inconclusive = weak or doubtful change; inactive = flat or rising curve; note: % of control where 0% means no effect; about half of the hits show no inhibition at the top dose; a quarter of the inactives give rising signals
Target sequence (P00811 whole entry, looked up): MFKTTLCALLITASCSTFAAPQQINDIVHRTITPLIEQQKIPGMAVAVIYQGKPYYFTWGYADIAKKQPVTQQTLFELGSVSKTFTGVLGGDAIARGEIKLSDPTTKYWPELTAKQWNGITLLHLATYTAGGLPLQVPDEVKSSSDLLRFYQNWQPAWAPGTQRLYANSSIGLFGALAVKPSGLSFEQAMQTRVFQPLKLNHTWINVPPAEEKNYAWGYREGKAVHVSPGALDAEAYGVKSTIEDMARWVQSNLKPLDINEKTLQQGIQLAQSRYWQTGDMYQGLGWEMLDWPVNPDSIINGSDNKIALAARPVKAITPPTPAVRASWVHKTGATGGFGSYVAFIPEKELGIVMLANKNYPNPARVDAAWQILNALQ
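AmpC, 20 mM phosphate pH 7.0; 15 min cpd preinc, RT; start with nitrocefin (800 uM stock); A480 kinetic read, 20 s intervals, 4 min. No-enzyme wells = negative control.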
Starred values were filed as active, the others as inactive; ? = inconclusive; & = joins results of further samples; [ ] = remark or other dose. Potency is the fitted concentration of half-maximal effect. An excerpt; count on the stated rates, not on these rows.

SMILES | AmpC inh no det
CCOC(=O)c1ccccc1NCN1C(=O)CSC1=O | 5.1%
CC1Cc2ccccc2N1C(=O)CCNS(=O)(=O)c1ccc2c(c1)CCC(=O)N2 (centres undefined) | 0.5%
COC(=O)c1cc(Cl)c(NC(=O)c2ccco2)cc1OC | 74.8%
CCOC(=O)Cc1nnc(NC(=O)c2ccccc2OCC)s1 | 74.9%
CCOc1ccc2nc(N3CCOCC3)nc(C)c2c1 | 36.2%
COc1cc(OC)nc(NC(=O)NS(=O)(=O)c2ccc(OC(F)(F)F)cc2)n1 | -1.9%
Cc1cc(C)nc(Nc2nc(=O)c3ccccc3s2)n1 | 3.6%
COC(=O)C1=C(N)Oc2cc(C)n(C)c(=O)c2C1c1ccc(Cl)c(Cl)c1 (centres undefined) | 19.8%
O=C(NCC(c1cccnc1)N1CCOCC1)C1CCCCC1 (centres undefined) | -7.8%
Cc1cnc(NC(=O)CSc2nc3ccccc3c(=O)[nH]2)s1 | -20.9%
CN(Cc1cc(=O)[nH]c2ccccc12)C(=O)c1ccccc1 | 17.7%
CCSc1nc2c(c(=O)[nH]c(=O)n2C)n1C/C=C(/C)Cl | 6.5%
CCOC(=O)C(C(=O)OCC)C(=O)c1cc(OC)c(OC)c(OC)c1 | 8.5%
CC(C)NC[C@H](O)COc1ccc(CC(N)=O)cc1 | 9.3%
Cn1c(=O)c2nc(Cl)n(Cc3ccc(Cl)cc3Cl)c2n(C)c1=O | 46.3%
O=C(NCc1cccnc1)C1CCCN(S(=O)(=O)c2ccccc2)C1 (centres undefined) | 7.2%
CCOC(=O)c1cc(-c2cccs2)nc2onc(C)c12 | -3.7%
CN(CCC#N)C(=O)COC(=O)c1ccc(Cl)c(S(N)(=O)=O)c1 | -11.5%
O=C(O)CCCC(=O)Nc1ccc(Cl)c(Cl)c1 | 2.2%
COc1ccc(Oc2c(-c3ccc(O)cc3O)n[nH]c2C)cc1 | -0.3%
O=C(NCC1COc2ccccc2O1)c1ccc(Cl)cc1 (centres undefined) | -13.8%
CN[C@H](CC(=O)O)C(=O)O | -3.1%&8.1%
c1ccc2c(c1)ccc1nnc(-c3ccc4c(c3)OCO4)n12 | 12.0%
CCOC(=O)c1cnc(-c2ccccc2)[nH]c1=O | -11.5%
Cc1c(C(Nc2ccccn2)c2ccc(Cl)cc2)c(=O)n(-c2ccccc2)n1C (centres undefined) | -15.5%

By substructure: those above with a COOH group.
SMILES | AmpC inh no det
O=C(O)CCCC(=O)Nc1ccc(Cl)c(Cl)c1 | 2.2%
CN[C@H](CC(=O)O)C(=O)O | -3.1%&8.1%

Of the compounds above, 8 contain a Cl atom.
SMILES | AmpC inh no det
COC(=O)c1cc(Cl)c(NC(=O)c2ccco2)cc1OC | 74.8%
COC(=O)C1=C(N)Oc2cc(C)n(C)c(=O)c2C1c1ccc(Cl)c(Cl)c1 (centres undefined) | 19.8%
CCSc1nc2c(c(=O)[nH]c(=O)n2C)n1C/C=C(/C)Cl | 6.5%
Cn1c(=O)c2nc(Cl)n(Cc3ccc(Cl)cc3Cl)c2n(C)c1=O | 46.3%
CN(CCC#N)C(=O)COC(=O)c1ccc(Cl)c(S(N)(=O)=O)c1 | -11.5%
O=C(O)CCCC(=O)Nc1ccc(Cl)c(Cl)c1 | 2.2%
O=C(NCC1COc2ccccc2O1)c1ccc(Cl)cc1 (centres undefined) | -13.8%
Cc1c(C(Nc2ccccn2)c2ccc(Cl)cc2)c(=O)n(-c2ccccc2)n1C (centres undefined) | -15.5%

Next section.
SMILES | AmpC inh no det
COc1ccccc1OCCCn1c(=O)sc2ccccc21 | 19.6%
CC(C)[C@@H](CC(=O)N[C@@H]1CCCC[C@H]1C(=O)N[C@H](CC(=O)N[C@@H](CCC(=O)O)CC(=O)O)Cc1ccccc1)NC(=O)C[C@H](Cc1ccccc1)NC(=O)[C@@H]1CNCC[C@H]1N | 95.8%
Cc1nc(N)sc1-c1csc(Nc2ccccn2)n1 | -5.3%
Cc1cc(C)n(-c2nc(SCC(=O)Nc3nccs3)c3c4c(sc3n2)COC(C)(C)C4)n1 | 55.3%
Cc1ccc(-n2c(C)cc(C(=O)CSc3nncs3)c2C)cc1 | 34.8%
Cc1cc(Nc2ccc(Br)cc2F)n2nc(C)nc2n1 | 28.3%
CCOC(=O)c1cc2ccc(OC(=O)c3ccco3)cc2oc1=O | 13.3%
CCn1c(CSc2nc(C)cc(C)n2)nnc1SCC(=O)Nc1ccccc1 | 45.3%
O=S(=O)(NCC(c1cccnc1)N1CCN(c2ccc(F)cc2)CC1)c1cccs1 (centres undefined) | 93.0%
COc1cc(C2c3c(n[nH]c3C)C(=O)N2c2ccc(C)cc2)ccc1O (centres undefined) | -2.4%
CC(=O)Nc1ccc(N2CCN(C(C)=O)CC2)cc1 | -11.0%
O=C(O)c1cc2nc(-c3ccc(F)cc3)cc(C(F)(F)F)n2n1 | -10.7%
COc1ccc(-c2cc(C(=O)OC3CCOC3=O)c3ccccc3n2)cc1OC (centres undefined) | 127.0%
CCOC(=O)c1cc(CC)sc1NC(=O)CCC(=O)O | -20.2%
CCOC(=O)c1ccc(NC(=O)c2nn(C)cc2Br)cc1 | 8.3%
COc1ccccc1CC(NC(C)=O)C(=O)N1CCN(C(=O)Nc2ccccc2Cl)CC1 (centres undefined) | 89.9%
CCn1c(=O)cc(OCC(=O)Nc2ccc(Cl)cn2)c2ccccc21 | ?
O=C(c1ccco1)N1CCN(C(=O)C2CCCc3c2[nH]c2ccc(Cl)cc32)CC1 (centres undefined) | 132.5%
CCC1Oc2nc(SC)nnc2-c2ccccc2N1C(=O)c1ccccc1 (centres undefined) | 46.5%
COc1ccc(NC(=O)c2ccc(-n3nc(C)c[n+]3[O-])cc2)cc1 | 1.1%
COc1ccccc1C(=O)n1nc(-c2ccccc2)nc1N | -4.4%
O=C(C1CN(S(=O)(=O)c2ccccc2)CCN1S(=O)(=O)c1ccccc1)N1CCCCCC1 (centres undefined) | 18.8%
COC(=O)C1(C#N)C(c2ccccc2)C1(C(=O)OC)C(=O)OC (centres undefined) | 15.3%
Cc1nnc(NC(=O)CSc2nnc(-c3ccc(S(=O)(=O)N4CCCC4)cc3)n2C)s1 | 29.2%
C=CCSC1=C(C#N)C(c2ccccc2OCC)C(C#N)C(=O)N1 (centres undefined) | -23.3%
The results go on.
SMILES | AmpC inh no det
Nc1c(C(=O)c2ccc(F)cc2)oc2ccccc12 | -2.8%
COCCN(CCOC)c1nc(C)nc2c1nc(-c1ccccc1)n2CCN1CCCC1 | 62.7%
COc1ccc(C)cc1S(=O)(=O)N1CCCCC1 | 6.6%
CSc1cccc(NC(=O)C2CCCN2S(=O)(=O)c2ccc3c(c2)CCC(=O)N3)c1 (centres undefined) | 21.0%
S=c1[nH]nc(C23CC4CC(CC(C4)C2)C3)n1Cc1ccco1 | -0.4%
CCCCCCCCCCCCCC(=O)O[C@H]1[C@@H](C)[C@@]2(O)[C@@H](C=C(CO)C[C@]3(O)C(=O)C(C)=C[C@@H]23)C2C(C)(C)[C@]21OC(C)=O (some centres undefined) | 108.3%
O=S(=O)(NCCCN1CCN(c2ccccc2F)CC1)c1cccc2cccnc12 | 66.5%
COc1cccc(N2C(=O)CC(N3CCN(S(=O)(=O)c4ccccc4)CC3)C2=O)c1 (centres undefined) | 62.6%
COc1ccc(CC(=O)NC(CC(=O)O)c2ccc(OC)cc2)cc1 (centres undefined) | -6.0%
Cc1ccc(OCC(=O)Nc2ccc3c(c2)nc2n3CCOC2)cc1 | 16.3%
CCCS(=O)(=O)N1CCCC(C(=O)NCCN2CCOCC2)C1 (centres undefined) | -5.8%
Cc1cc(NC(=O)CSc2nnc(COc3cccc(C)c3C)n2Cc2ccco2)no1 | -7.8%
O=C(CSc1nnc2scc(-c3ccccc3)n12)c1ccc2c(c1)OCCO2 | -4.1%
COc1cccc(-c2nccc(NCc3ccccc3)n2)c1 | 30.1%
Cc1cccc(Cl)c1OCCCCn1ccnc1 | 2.4%
CCN(CC)C(=O)CSc1nc2sc(C)c(C)c2c(=O)[nH]1 | 49.3%
Cc1nnc(SCC(=O)N2CCC(Cc3ccccc3)CC2)n(N)c1=O | 41.1%
Cc1[nH]c(=O)[nH]c(=O)c1S(=O)(=O)NCCOC12CC3CC(CC(C3)C1)C2 | 0.6%
CCOc1ccc(/C=c2\sc3nc(-c4ccco4)nn3c2=O)cc1OCC | 50.3%
Cc1cc(C)c2c(CN3CCN(Cc4ccc5c(c4)OCO5)CC3)cc(=O)oc2c1 | 86.9%
CC1(C)CC(=O)C(/C=N/c2ncccc2C(=O)O)=C(O)C1 | -7.7%
O=C(NCC(=O)N1CCCC1C(=O)O)OC1CCCCC1 (centres undefined) | 3.5%
COC(=O)c1ccc(CSc2nc(-c3ccco3)cc(C(F)(F)F)n2)o1 | 38.2%
Cc1cc(=O)cc(C)n1-c1ccccc1N1CCOCC1 | 20.4%
Cc1cccc(NC(=O)c2ccc(S(=O)(=O)N(C)C)cc2)n1 | 6.2%
(cont.)
SMILES | AmpC inh no det
C=CCNC(=O)C1CCN(S(C)(=O)=O)CC1 | -4.7%
CCOC(=O)C1CCCN(C(=O)c2cc3nc(-c4cccc(OC)c4)cc(C(F)(F)F)n3n2)C1 (centres undefined) | 142.7%
Cc1ccc(C(C#N)N2CCOCC2)cc1 (centres undefined) | 3.5%
COc1ccc(C(=O)N2CCCC(c3nc(-c4cc(OC)c(OC)c(OC)c4)no3)C2)cc1 (centres undefined) | 143.8%
COC(=O)[C@@]1(Cc2ccc(F)cc2)[C@H]2c3cc(C(=O)N4CCCC4)n(Cc4ccc(C)c(F)c4F)c3C[C@H]2CN1C(=O)c1ccccc1 | 121.3%
Cn1c(-c2ccccc2)cnc1SCC(N)=O | -7.9%
COc1cc(OC)cc(-n2nnnc2SCC(=O)NCc2ccc3c(c2)OCO3)c1 | -7.3%
O=C(CCCC(=O)N(CC(=O)NC1CCCCC1)Cc1ccc2c(c1)OCO2)Nc1ccccn1 | 62.6%
Nc1nc(Cn2nnc(-c3ccccc3F)n2)nc(N2CCOCC2)n1 | 8.6%
COc1ccc2[nH]c(C)c(C(=O)CN(C)C)c2c1 | -5.1%
CN(C)c1ccc(C2N(c3ccc(Cl)cc3)C(=O)C3CCCN32)cc1 (centres undefined) | 8.8%
CCOC(=O)C1CCCN(C(=O)C2CCN(S(=O)(=O)CC)CC2)C1 (centres undefined) | -4.0%
Clc1ccc(C(c2ccc(Cl)cc2)C(Cl)(Cl)Cl)cc1 | ?
CCS(=O)(=O)Nc1ccc(Cc2ccncc2)cc1 | -8.7%
CCc1ccc2oc(-c3cc(N)ccc3O)nc2c1 | -3.3%
O=C(COC(=O)c1ccc(NS(=O)(=O)c2ccc3c(c2)OCCO3)cc1)NCC1CCCO1 (centres undefined) | 18.3%
CCn1nnnc1-c1ccc(OC)c(S(=O)(=O)Nc2ccc(C(=O)OC)cc2)c1 | 6.0%
O=C(Nc1ccccc1)N1CC[C@@]2(CCCN(C(=O)c3cnccn3)C2)C1 | -16.7%
COc1ccc(NC(=O)c2sc(SC)nc2N)cc1 | -15.3%
O=C(CCN1C(=O)c2ccccc2C1=O)Nc1ccc(-c2nc3ccccc3o2)cc1 | 11.5%
CC(C)C(=O)Nc1cccc(NC(=O)c2cccnc2)c1 | 3.7%
Cc1csc2ncc(C(=O)Nc3ccccc3F)c(=O)n12 | 8.6%
CS(=O)(=O)NCc1nnc(SCc2ccccc2C(F)(F)F)o1 | 17.8%
O=C(NCc1cccs1)c1cc2c(s1)CCCC2 | -10.8%
CCN(CC)c1cccc(OCC(=O)N(C)CCC#N)c1 | 43.1%
Other entries.
SMILES | AmpC inh no det
Cc1ccc(NC(=O)C2CCN(C(=O)NC3CCCCC3)CC2)cc1Cl | 15.9%
O=C(c1ccc(NC2=NC3CS(=O)(=O)CC3S2)cc1)N1CCN(C(=O)c2ccco2)CC1 (centres undefined) | 3.98µM*[single pt active]
Cn1cc(CN2CCc3ccccc3C2)c2ccccc21 | 13.4%
CCOC(=O)N1CCC(NC(=O)CSCc2nc(-c3ccc(OC)c(OC)c3)oc2C)CC1 | 83.7%
COc1ccc(C2c3c(oc4ccccc4c3=O)C(=O)N2c2ccccn2)cc1 (centres undefined) | -5.0%
CC(=O)O[C@]1(C)N=NC2(CCCCC2)O1 | 5.6%[5.75 µM]
CCN(C1CCCCC1)S(=O)(=O)c1ccc(S(=O)(=O)NCCc2ccncc2)cc1 | 69.9%
C[C@@H]1CC[C@H]2[C@H](C)[C@H]3[C@H](C[C@H]4[C@@H]5CC=C6C[C@@H](O)CC[C@@]6(C)[C@@H]5C[C@@H](O)[C@]34C)N2C1 | 8.5%[5.75 µM]
CCC(C)C(NC(=O)OC(C)(C)C)C(=O)NCc1ccco1 (centres undefined) | 4.0%
O=C1CC(N2CCN(c3ccccc3Cl)CC2)C(=O)N1c1cccc(F)c1 (centres undefined) | 64.7%
CCCNC(=O)C(Cc1ccccc1)NS(=O)(=O)c1cccc2nsnc12 (centres undefined) | -0.7%
COc1ccccc1CCn1c(=O)c(-c2cc(F)cc(F)c2)nc2cncnc21 | 9.3%
COc1cccc(-c2cc(C(F)(F)F)n3ncc(C(=O)NCC4CCCO4)c3n2)c1 (centres undefined) | 92.8%
CCN1CCN(Cc2ccc3c(c2)Cc2ccccc2-3)CC1 | 20.2%
O=C(O)c1ccc(COc2c(F)c(F)cc(F)c2F)cc1 | -3.9%
CCNC(=O)CC1C(=O)N(c2ccccc2)C(=O)N1Cc1ccc(OC)cc1 (centres undefined) | -1.2%
O=C1c2cccnc2C(Nc2ccc(S(=O)(=O)N3CCCCC3)cc2)N1Cc1ccccc1 (centres undefined) | 83.1%
C=CCNc1nc2c(c(=O)n(C)c(=O)n2C)n1Cc1ccc(F)cc1 | 23.7%
CCCN(CCC)C(=O)C1c2ccccc2Oc2ccccc21 | 31.7%
O=C(NCc1cccs1)c1ccncc1 | -4.0%
